From PubChem BioAssay
UCH37 inh = inhibitors of human deubiquitinating enzyme UCH37; inhibition, % (concentration not given with the values); purified proteasome/UCH37, Ub-AMC cleavage fluorescence; AID 588478; hit rate 0.33% among 330,000; Q9Y5K5;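 active = mean of two replicates above 20%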;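 also: 0% = compound-free wells with enzyme and 100% = wells lacking proteasome; stock transfer was 100 nL into about 20 µL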
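Assay system: Proteasome-bound UCH37. Buffer or medium: pH 7.4 Tris-HCl (50 mM) with ovalbumin, ATP-MgCl2, DTT. Incubation: 30 min preincubation with enzyme, 25 min cleavage at room temperature. Measured by: fluorescence, ex 355 nm, em 460 nm. Read-out basis: percent inhibition. Control set: wells without proteasome as full block, compound-free enzyme plus substrate as uninhibited.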
B2AR ag = agonists of human beta-2 adrenergic receptor inducing internalization | P07550 | Am2.2-beta2AR cells, FAP receptor internalization, flow cytometry; reference of the scale not given here | response, % (concentration not given with the values) | hit rate 0.43% among 340,000;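 active = response above a set limit, near 3 SD of response in nonfluorescent compounds, cut at about 42% in these data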;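 also: stock transfer was 100 nL into about 11 µL; a reference agonist was the positive control; negative values mostly stem from fluorescent compounds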
Calb FLC = C. albicans growth modulation with fluconazole; C. albicans CaCi-2 (fluconazole-resistant clinical isolate) + fluconazole, Alamar Blue growth, 48 h; growth inhibition, % (test concentration not listed); hit rate 0.57% among 300,000; AID 1979;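 active = most replicates above 75%; inconclusive = exactly half above 75%; inactive = most below 75%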;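 also: all wells also contain fluconazole at 8 µg/ml as a sub-toxic cotreatment; 0% = median of DMSO wells and 100% = median of geldanamycin control wells; wells of about 8 µL received 7.5 nL stock; the first replicate is given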
Beta apoptosis = blocks beta cell apoptosis; INS-1E cytokine-induced death, ATP luminescence, 48 h; percent of positive-control rescue, neutral wells zero; protection from apoptosis, % (concentration not given with the values); hit rate 0.8% among 300,000; AID 435005;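 active = all replicates at 75% or more, or half of them and the mean; inconclusive = half reach 75% but not the mean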;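 also: 0% = cytokine-treated negative control wells and 100% = positive control rescue; higher means more ATP so stronger rescue from cytokine killing; wells of about 40 µL received 100 nL stock; the first replicate is given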
T cruzi repl = T. cruzi replication inhibition; hit rate 1.4% among 300,000; T. cruzi beta-gal in NIH3T3, luminescence, 90 h; AID 1885; inhibition, % (test concentration not listed);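 active = mean inhibition across valid replicates above about 55%, limit read from the data; inconclusive = mean below that limit but half or more replicates reach it; inactive = mean below it, under half of replicates reach it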;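 also: signal also drops with host cell toxicity which is not excluded here; 0% = plate median of DMSO wells and 100% = zero luminescence signal; higher percent means less beta-gal luminescence so fewer parasites; stock transfer was 50 nL into about 50 µL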
LANA-H2B inh = blocks KSHV LANA binding to histone H2A/H2B; cell-free LANA-H2A/H2B peptide, fluorescence polarization; hit rate 0.6% among 320,000; Q9QR71; inhibition, % (test concentration not listed); in the data active = inhibition mostly above about 10%, no sharp cut-off; inactive = mostly below about 6.7%;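 also: stock transfer was 7.5 nL into about 10 µL; 0% = median of vehicle wells and 100% = median of positive control wells; one replicate is shown; the record names a cut of 25% in any replicate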
Target sequence (Q9QR71 whole entry, looked up): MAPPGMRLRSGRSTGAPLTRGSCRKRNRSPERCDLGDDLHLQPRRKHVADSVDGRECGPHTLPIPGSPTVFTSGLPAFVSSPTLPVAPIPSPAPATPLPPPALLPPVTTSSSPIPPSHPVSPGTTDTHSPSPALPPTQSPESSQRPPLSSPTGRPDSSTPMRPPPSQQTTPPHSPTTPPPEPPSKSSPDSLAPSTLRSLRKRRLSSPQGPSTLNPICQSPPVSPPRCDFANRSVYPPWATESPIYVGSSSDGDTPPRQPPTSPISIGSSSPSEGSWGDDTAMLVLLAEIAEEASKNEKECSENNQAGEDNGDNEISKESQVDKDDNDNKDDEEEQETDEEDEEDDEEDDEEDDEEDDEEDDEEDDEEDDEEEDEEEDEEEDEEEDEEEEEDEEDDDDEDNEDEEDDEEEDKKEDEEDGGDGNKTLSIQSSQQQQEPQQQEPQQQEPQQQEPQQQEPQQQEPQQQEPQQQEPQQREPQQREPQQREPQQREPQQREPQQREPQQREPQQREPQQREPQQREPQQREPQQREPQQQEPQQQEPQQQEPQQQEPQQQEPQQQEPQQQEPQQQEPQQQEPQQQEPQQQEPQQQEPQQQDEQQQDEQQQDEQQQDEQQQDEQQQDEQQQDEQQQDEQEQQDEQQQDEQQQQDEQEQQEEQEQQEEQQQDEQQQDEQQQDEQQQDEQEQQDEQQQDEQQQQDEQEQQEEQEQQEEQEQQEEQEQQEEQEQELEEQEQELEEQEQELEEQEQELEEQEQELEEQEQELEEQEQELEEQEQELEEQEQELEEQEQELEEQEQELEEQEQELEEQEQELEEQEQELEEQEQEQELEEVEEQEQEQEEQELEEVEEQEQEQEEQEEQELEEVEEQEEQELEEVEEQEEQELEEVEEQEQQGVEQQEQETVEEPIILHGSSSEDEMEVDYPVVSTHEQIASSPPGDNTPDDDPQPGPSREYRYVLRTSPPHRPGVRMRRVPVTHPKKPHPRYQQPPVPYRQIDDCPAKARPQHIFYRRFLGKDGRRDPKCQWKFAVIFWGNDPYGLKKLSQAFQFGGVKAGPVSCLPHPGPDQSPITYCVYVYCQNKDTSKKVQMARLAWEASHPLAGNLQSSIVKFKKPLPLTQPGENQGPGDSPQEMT
RanGTP-Impb inh = disruptors of Ran-importin-beta complex formation – biochemical, FRET, CFP-Ran, YFP-importin-beta, homogeneous, primary screen | cell-free CFP-Ran/YFP-importin-beta FRET ratio | inhibition, % (no concentration beside the values) | hit rate 1.1% among 300,000 | AID 2216;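 active = most replicates above 15%; inconclusive = exactly half above 15%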;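 also: 0% = DMSO wells and 100% = Ran loaded with GDP instead of GTP; wells of about 40 µL received 100 nL stock; the first replicate is given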
Bfl-1 A1 inh = inhibitors of the anti-apoptotic protein A1, read as caspase activation; AID 2462; MEF A1-2A-BIM cells, Caspase-Glo 3/7 luminescence, 3 h; percent of clofoctol response, vehicle zero; caspase activation, % (test concentration not listed); hit rate 0.066% among 330,000;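 active = over half of replicate activation scores above 10%, or exactly half above 10 with the replicate mean above 10; inconclusive = replicate mean below 10 yet half the replicates above 10; inactive = over half of replicates below 10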;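 also: wells of about 30 µL received 50 nL stock; many hits fall short of the cut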
The depositor's hits bear a star; ? = inconclusive; . = no result given.

#	SMILES	UCH37 inh	B2AR ag	Calb FLC	Beta apoptosis	T cruzi repl	LANA-H2B inh	RanGTP-Impb inh	Bfl-1 A1 inh
1	Cc1ccc(Nc2nc(N3CCOCC3)nc(N3CCOCC3)n2)cc1	-2.4	19	-2	-9	29	-2.4	-0.1	0.2
2	CCCCc1ccc(NC(=O)CN(C)CC(=O)Nc2ccccc2Cl)cc1	2.7	-12	-3	2	24	-1.6	3.4	18*
3	CSc1cccc(NC(=O)C2CCCN(c3ncnc4c3nc3n4CCCCC3)C2)c1 (stereo not given)	2.4	-2	-14	-12	17	3.0	-0.8	-1.4
4	O=C(Nc1nc(N2C(=O)c3ccccc3C2=O)n(-c2ccccc2)n1)c1ccc(Cl)cc1	0.7	-4	-6	3	3	-16	0.9	2.1
5	O=C(N/N=C/c1ccco1)c1cc(-c2cccs2)[nH]n1	.	-8	1	0	-30	6.0	1.0	-0.3
6	O=C1[C@H]2[C@H](C=CC[C@H]2C(=O)N2CCOCC2)CCN1Cc1ccc(Cl)c(Cl)c1	0.4	.	-1	-2	-11	1.2	2.3	0.1
7	Cc1ncc([N+](=O)[O-])n1CC(=O)NC(C)(C)C	4.0	1	18	0	-2	.	1.0	-0.4
8	Cc1ccc(N2C(=O)NC(NC(=O)C(C)(C)C)(C(F)(F)F)C2=O)cc1C (stereo not given)	3.0	0	-10	0	4	-5.1	2.9	-0.3
9	COc1ccc(/C=N/NC(=O)CNC(=O)c2ccc3c(c2)OCCO3)c(C(=O)O)c1OC	.	4	25	0	1	3.0	-1.6	-0.6
10	CC(C)(C)OC(=O)N1CCCC1C(=O)N1CCc2ccccc21 (stereo not given)	2.8	5	9	-3	-33	-4.5	4.3	1.0
11	CCc1ccccc1N(C(=O)c1snc(C(N)=O)c1N)C(C(=O)NCC1CCCO1)c1ccc(OC)c(OC)c1 (stereo not given)	-460	-3	5	.	10	.	1.2	.
12	O=C(COC(=O)c1cccnc1)Nc1ccccc1	2.3	1	-24	-2	-12	4.0	-0.3	0.1
13	COc1ccc(C(=O)NCC(c2cccs2)N2CCc3ccccc32)c(OC)c1 (stereo not given)	-1.5	-3	1	5	16	-0.6	0.1	0.1
14	Fc1ccc(-c2[nH]ncc2-c2nnnn2-c2ccccc2)c(F)c1	0.1	4	17	-2	-2	0.5	-3.0	0.1
15	COc1ccc(-c2nn(-c3ccccc3)cc2CO)cc1OC	3.3	-18	1	2	-2	-0.9	-2.8	-1.0

Gathered by group, the entries above with a thiophene ring, fused or not (two)
#	SMILES	UCH37 inh	B2AR ag	Calb FLC	Beta apoptosis	T cruzi repl	LANA-H2B inh	RanGTP-Impb inh	Bfl-1 A1 inh
5	O=C(N/N=C/c1ccco1)c1cc(-c2cccs2)[nH]n1	.	-8	1	0	-30	6.0	1.0	-0.3
13	COc1ccc(C(=O)NCC(c2cccs2)N2CCc3ccccc32)c(OC)c1 (stereo not given)	-1.5	-3	1	5	16	-0.6	0.1	0.1

(more compounds)
#	SMILES	UCH37 inh	B2AR ag	Calb FLC	Beta apoptosis	T cruzi repl	LANA-H2B inh	RanGTP-Impb inh	Bfl-1 A1 inh
16	Cc1ccc(C)c(N(C(=O)CNC(=O)c2ccco2)C(C(=O)NCC2CCCO2)c2ccccc2)c1 (stereo not given)	1.2	-4	10	.	10	0.4	2.0	-0.3
17	COc1ccc(C/C(C)=N/NC(=O)c2cc(C)oc2C)cc1	.	4	17	-4	-8	0.7	3.7	-0.4
18	O=C(NCCN1C(=O)S/C(=C\c2ccccc2F)C1=O)C1=COCCO1	7.0	-9	-1	.	-1	1.3	1.8	0.3
19	O=C(CN1CCN(Cc2ccc3c(c2)OCO3)CC1)N1CCc2[nH]c3ccc(F)cc3c2C1	0.9	-10	?	-6	33	3.3	-5.0	-0.9
20	CC(C)CN1CCN(Cc2cccn2-c2ccccn2)CC1CCO (stereo not given)	1.6	-11	-3	-6	4	-4.7	1.4	0.4
21	CCOC(=O)c1ccc(NC(=S)NCCCN2CCN(C3CCCCC3)CC2)cc1	2.3	-14	-8	-10	30	3.2	-0.9	1.2
22	Cc1ccc(S(=O)(=O)N2CCN(c3ncccn3)CC2)c(C)c1	2.1	-8	5	7	-6	4.6	8.6	-2.6
23	O=C(Nc1ccc2c(c1)OCO2)c1ccc(S(=O)(=O)N2CCCC2)cc1	-0.6	-1	?	-7	0	0.0	1.9	0.4
24	CC(=O)Nc1ccc(NC(=O)CSC2=NS(=O)(=O)c3cc(F)ccc3N2)cc1	2.7	-8	-1	-6	0	.	2.8	0.5
25	Cc1ccc(Nc2nnc(C)c3ccccc23)c(C)c1	3.6	-5	4	12	31	1.8	-2.1	-0.3
26	CCOC(=O)/C=C1\SCC(=O)N1CC(=O)NC(C)c1ccccc1 (stereo not given)	-2.4	11	-4	4	-3	-8.1	-4.6	2.0
27	Cc1cc(S(=O)(=O)NCc2ccncc2)c(C)cc1Br	1.3	-5	7	75*	-13	-1.8	-1.5	0.3
28	Cc1nnsc1SCCNC(=O)c1c(F)cccc1F	0.7	11	3	5	1	3.9	-1.5	0.1
29	CC(=O)c1ccc(N2CCN(C(=O)CCC(=O)Nc3ccc4nc(N5CCN(C)CC5)cc(C)c4c3)CC2)cc1	-2.2	9	-2	2	33	4.9	?	-0.2
30	CCN(CC(=O)Nc1ccccc1OC)C(=O)C1CC2C=CC1C2 (stereo not given)	0.4	2	15	-7	-8	-5.8	-0.6	1.1

Single entries from the list:
Entry of entry 30 under Calb FLC: 15
Entry of entry 20 under RanGTP-Impb inh: 1.4
Entry of entry 26 under B2AR ag: 11

The listing continues.
#	SMILES	UCH37 inh	B2AR ag	Calb FLC	Beta apoptosis	T cruzi repl	LANA-H2B inh	RanGTP-Impb inh	Bfl-1 A1 inh
31	O=C1OCCC1Sc1nc2ccccc2n1-c1ccccc1 (stereo not given)	2.0	0	4	-5	10	-0.8	3.6	-0.6
32	CC12OC1C1(O)CCCC1=CC2=O (stereo not given)	.	.	4	2	-9	-0.7	20*	0.4
33	CCOC(=O)c1c(/N=C/N(C)C)sc(/C=N/Nc2ccccc2)c1-c1ccccc1	.	-7	0	0	40	1.8	-14	0.4
34	O=c1cc(-c2ccccc2Cl)c2c([nH]1)CCC2	-5.7	7	-1	3	4	0.4	3.9	-0.4
35	O=C(CCS(=O)(=O)c1ccc(Br)cc1)NCCc1ccccc1	0.1	-5	0	-4	-11	2.4	5.7	0.5
36	CNC(=O)N(O)C1N(c2ccccc2)C(=S)SC1(C)C (stereo not given)	1.8	-6	4	2	-6	0.9	3.0	0.3
37	COc1cccc(-c2csc(NC(=O)C3CC3)n2)c1	5.3	-10	-9	-1	2	2.6	-0.8	-0.5
38	Oc1ccc(Nc2nc(-c3cccnc3)cs2)cc1	3.2	-7	11	-10	38	0.8	0.5	-3.4
39	Cc1cc(C)n(CC(=O)N/N=C/c2ccco2)n1	.	6	-1	-6	1	-2.6	-0.9	-0.5
40	C=CCNC(=O)C12CCC(C)(C(=O)C1Br)C2(C)C (stereo not given)	1.4	-1	-10	-5	-11	1.2	-0.4	0.5
41	Nc1nc2n(n1)C(=O)CC(c1ccccc1[N+](=O)[O-])N2 (stereo not given)	-5.1	-2	-4	-2	-10	-6.2	?	-0.9
42	CCc1cc2c(=O)[nH]cnc2s1	0.6	9	-3	-4	-1	-3.1	0.3	0.4
43	CCCCNC(=O)C1C2C=CC3(CN(Cc4ccccc4Cl)C(=O)C13)O2 (stereo not given)	4.8	-7	-14	-4	-8	-3.4	3.3	0.3
44	O=C(Nc1ccc2oc(-c3ccncc3)nc2c1)c1ccccc1	-59	-1	8	0	1	2.6	4.8	-0.1
45	O=S(=O)(Cc1cc(Oc2ccccc2)nc(-c2ccccc2)n1)c1ccccc1	4.1	-1	-1	6	13	4.9	0.2	0.2
46	O=C(C1=C(O)C(=O)N(Cc2cccnc2)C1c1ccccn1)c1cccs1 (stereo not given)	12	4	-5	1	-10	-1.4	?	0.6
47	CC(C)CCNC(=O)c1ccc(Cn2c(=S)[nH]c3ccccc3c2=O)cc1	0.7	-15	17	.	10	-3.8	3.1	-0.1
48	O=C(N/N=C/c1cc([N+](=O)[O-])ccc1O)c1cccc(N2CCCC2=O)c1	.	-3	-1	1	-10	-0.7	3.7	0.2
49	COc1ccc(C)cc1S(=O)(=O)N1CCN(C(=O)c2ncoc2-c2cccc(F)c2)CC1	3.5	7	5	-3	9	-2.9	4.0	-0.5
50	CNc1c(NS(=O)(=O)c2ccc3c(c2)CCCC3)c(=O)oc2ccccc12	-48	11	22	0	-23	2.7	?	0.8
51	CCCCc1nc2cc(C(=O)N3CCC(OC)CC3)ccc2o1	2.4	-5	-5	2	-7	0.0	4.6	-1.0
52	O=C(C1CCN(Cc2cc(Cl)ccc2O)CC1)N1CCN(Cc2ccccc2)CC1	2.3	6	-4	0	-10	-5.9	?	0.2
53	Cc1ccc2oc(=O)cc(CN3CCC(C)CC3)c2c1	2.9	-3	-5	-2	-5	-4.1	3.6	0.1
54	O=C1COc2ccc(C(=O)COC(=O)Cc3ccccc3F)cc2N1	3.1	-1	-4	2	-3	1.9	1.9	-0.6
55	Cn1nc(-c2ccccc2)c(C(=O)NC(C(=O)O)c2ccccc2)c1Cl (stereo not given)	0.1	-7	-4	0	-8	-2.6	0.8	-0.6
56	O=C(CSc1nc2ccccc2n1CCc1ccccc1)N1CCOCC1	0.8	20	-2	2	13	2.0	-1.2	-0.3
57	C[N+]1(C2CCC3CCC2C3O)CCCC1 (stereo not given)	1.2	-1	-28	-10	-4	-4.4	-3.1	0.0
58	Cc1ccc(NC(=O)CCc2c(C)nc3ncnn3c2C)cc1	2.1	1	-10	0	-14	-4.7	-0.3	-0.8
59	Cc1ccc(NC(=S)NCCN2CCOCC2)cc1	.	-6	10	-3	7	4.2	18*	-0.4

No enrichment for hits; 4.3% or so of the library scored in one or more.
